CSC inhib – cancer stem cell inhibition; cancer stem cell-like cells viability, luminescence; AID 2717; actives 1.1% (n = 300,000); inhibition, % at 7.5 µM;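 active means mean at 75% or more and at least half the replicates too; inconclusive means mean and replicates disagree; tested in HMLE shEcad cells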;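 further: 0% = median of negative and 100% = median of positive control wells; the first replicate is given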
MT1-MMP act inh – blocks activation of human MT1-MMP. P50281. HT1080 RFP-PRO-GFP cells, GFP/RFP ratio fluorescence, overnight; percent of plate control window, DMSO zero. GFP/RFP ratio change, % at 20 µM. actives 0.061% (n = 360,000). AID 651647;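 active means GFP/RFP ratio change of at least 30% with cell ATP level not reduced by more than half and red fluorescence within 50% of control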; further: strong numbers were not always called active
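Material – HT1080 RFP-PRO-GFP cells · Control set – DMSO wells and RFP-L50D-GFP cells · Incubation – overnight cell settling, then overnight compound exposure, 37 °C, 5% CO2 · Compound dosing – single-point 20 µM compound, 1% DMSO · Read-out – GFP/RFP fluorescence ratio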
PABP polyA inh – blocks human PABP binding to poly(A) RNA | actives 1% (n = 290,000) | inhibition, % at 35 µM | P11940 | fluorescence polarization;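 active means 50% or more with normal probe brightness, or confirmed in later tests; inconclusive means above 50% with abnormal brightness, or retests that disagree; inactive means below 50% or failed in later tests; about a fifth of its hits are not listed in these tables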;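 further: calls also rest on retests at 20 µM and on dose response follow-up; controls were probe without protein and protein plus probe with vehicle; some compounds called inactive have numbers as strong as hits; many hits fall short of the cut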
Target sequence (P11940 whole entry, looked up): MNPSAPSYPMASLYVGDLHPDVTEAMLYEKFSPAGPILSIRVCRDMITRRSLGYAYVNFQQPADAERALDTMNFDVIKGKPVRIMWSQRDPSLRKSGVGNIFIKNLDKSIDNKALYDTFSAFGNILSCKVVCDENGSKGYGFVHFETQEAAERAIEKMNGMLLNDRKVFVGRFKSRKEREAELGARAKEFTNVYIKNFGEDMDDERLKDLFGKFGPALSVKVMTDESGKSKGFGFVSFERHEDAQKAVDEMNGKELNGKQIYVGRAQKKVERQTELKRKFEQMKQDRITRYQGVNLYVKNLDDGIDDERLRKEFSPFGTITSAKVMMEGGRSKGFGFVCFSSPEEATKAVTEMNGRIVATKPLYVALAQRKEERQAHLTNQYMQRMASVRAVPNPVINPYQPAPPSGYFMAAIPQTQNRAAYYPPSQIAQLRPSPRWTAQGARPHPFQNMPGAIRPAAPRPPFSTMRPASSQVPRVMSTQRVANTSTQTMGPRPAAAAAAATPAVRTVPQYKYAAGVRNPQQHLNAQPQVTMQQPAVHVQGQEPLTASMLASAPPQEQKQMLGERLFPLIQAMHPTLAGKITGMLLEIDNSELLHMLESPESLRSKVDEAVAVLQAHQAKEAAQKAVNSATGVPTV
Yeast UUG start – yeast start codon fidelity modulation | activity score, % at 18.7 µM | actives 0.13% (n = 350,000) | S. cerevisiae UUG-firefly luciferase reporter, luminescence/redox ratio;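 active means replicate mean at a twofold rise or more, about +100% in these data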;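 further: firefly luciferase made from a UUG start codon reports start codon fidelity; reporter light over untreated wells divided by growth signal over untreated wells; some hits fall short of that in this replicate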
Env fusion inh – inhibitors of HIV Env-mediated cell fusion; actives 1.1% (n = 360,000); AID 651610; inhibition, % at 12.3 µM; HeLa-JRFL Env/CEM21 cell fusion, luciferase;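 active means mean replicate inhibition score of at least 50 and every replicate individually at or above 50; inconclusive means only one of the two criteria met; inactive means mean below 50 and not all replicates reaching 50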;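 further: 0% = plate neutral controls and 100% = maraviroc near 300 nM; one replicate is shown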
Rce1 inhib – blocks yeast Ras-converting enzyme; Q03530; yeast membranes, quenched prenylated peptide cleavage fluorescence; calls only; actives 0.27% (n = 290,000); AID 2563;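 active means fall in fluorescence gain of 50% or more versus controls, with final raw signal at or below 3038400; inconclusive means same 50% fall but final raw signal above 3038400; inactive means fall in fluorescence gain under 50%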;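 further: plate controls were neutral control wells for no effect and wells lacking membranes for full effect; tested at 10 µM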
Target sequence (Q03530 whole entry, looked up): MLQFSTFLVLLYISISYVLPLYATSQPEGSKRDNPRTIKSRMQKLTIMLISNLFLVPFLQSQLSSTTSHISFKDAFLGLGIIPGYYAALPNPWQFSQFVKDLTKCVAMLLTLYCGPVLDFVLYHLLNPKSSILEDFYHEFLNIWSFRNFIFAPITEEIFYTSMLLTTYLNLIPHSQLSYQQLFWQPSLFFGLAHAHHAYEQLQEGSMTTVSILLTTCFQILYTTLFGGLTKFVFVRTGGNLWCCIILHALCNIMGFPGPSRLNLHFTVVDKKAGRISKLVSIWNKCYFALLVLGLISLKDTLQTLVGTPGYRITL
eIF4H FP inh – inhibitors of RNA binding by human eIF4H. inhibition, % at 35 µM. eIF4H fluorescence polarization binding assay. AID 2012. Q15056. actives 0.94% (n = 290,000);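 active means 50% or more with normal probe brightness, or confirmed in later tests; inconclusive means above 50% with abnormal brightness, or retests that disagree; inactive means below 50% or failed in later tests; about a fifth of its hits are not listed in these tables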;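 further: calls also rest on retests at 20 µM and on dose response follow-up; 0% = protein and probe with vehicle and 100% = probe without protein; strong numbers were not always called active; many hits fall short of the cut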
eIF4H FP inh retest – further read-out of eIF4H FP inh, marked with its call; inhibition, %; compound at 20 µM; confirmation average;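 mean of two retest wells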
PABP polyA inh retest – recorded beside PABP polyA inh, whose call it bears; inhibition, %; compound at 20 µM; confirmation repeats;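 mean of two retest wells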
MT1-MMP act inh RFP – also measured in MT1-MMP act inh; calls as there; RFP signal change, %; measured here: RFP expression control read;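 0 = vehicle wells; hits needed this value within 50% of zero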
Active calls of the source: *; i = inactive; u = inconclusive; x = not tested or not shown; & = joins results of further samples; [ ] = remark or other dose.

SMILES | CSC inhib | MT1-MMP act inh | MT1-MMP act inh RFP | PABP polyA inh | Yeast UUG start | Env fusion inh | Rce1 inhib | eIF4H FP inh | others
N#C/C(=C/c1ccc([N+](=O)[O-])cc1)C(=O)Nc1ccccc1O | -7 | 6 | 5 | 1 | -7 | -24 | i | 0
Fc1ccccc1-c1ccc(/C=N/Nc2nc3ccccc3[nH]2)o1 | 16 | 2 | -5 | -8 | x | -204 | i | -2
CC(=O)c1cccc(-c2ccnc3c2CC(C(=O)Nc2cccnc2)O3)c1 (stereo unspecified) | x | -1 | -5 | x | -4 | -6 | x | x
Nc1nc(-c2ccc(Cl)cc2)c(S(=O)(=O)c2ccccc2)s1 | -5 | 6 | -3 | -14 | x | 2 | i | 2
COc1cc(C)nc(Oc2ccc(OCc3ccccc3)nn2)n1 | -22 | 10 | 5 | 4 | -1 | -6 | i | 4
O=C(NCCN1CCOCC1)c1c(O)nc2ccccn2c1=O | -13 | 2 | 6 | -8 | -14 | 2 | i | -6
COc1ccc(S(=O)(=O)N2CCN(C(=O)c3cc(-c4ccc(Br)cc4)n[nH]3)CC2)cc1OC | -15 | 6 | -21 | 7 | 4 | 27 | i | -2
Cc1ccc(NC(=O)Cn2c([N+](=O)[O-])cnc2C)cc1 | -2 | -2 | 2 | -7 | x | 0 | i | -4
COc1ccc(CCNC(=O)COc2ccc(S(=O)(=O)NC(C)C)cc2Cl)cc1OC | -8 | 1 | 0 | 9 | 3 | x | i | -2
Cc1ccc2[nH]c(=O)c(COC(=O)C3CCCO3)cc2c1 (stereo unspecified) | -8 | 4 | 6 | 6 | -16 | x | i | 0
COC(=O)C1=C(C)NC(C)=C(C(=O)OC)C1/C=C/c1ccccc1 | x | 13 | 8 | 8 | -12 | x | i | -1
Cc1nc(-c2cc(C#N)c(Sc3ccc(Cl)cc3Cl)nc2C)cs1 | 17 | 0 | 1 | 26 | x | 6 | i | 14
NC(=O)C1CCN(C(=O)c2cccc(S(=O)(=O)N3CCCC3)c2)CC1 | x | 1 | 2 | x | -5 | 4 | x | x
CC(=O)CC1(O)C(=O)N(CN2CCN(c3ccccc3)CC2)c2ccccc21 (stereo unspecified) | x | -1 | 8 | 0 | -19 | x | i | 12
CCN(CC)C(=O)CSc1nnc(-c2cc(OC)cc(OC)c2)o1 | -9 | 2 | -4 | -4 | 17 | 5 | i | -1
O=C1c2ccccc2C(=O)c2c1ccc1c(=O)n(-c3ccccc3)[nH]c21 | 34 | 19 | -2 | 42 | -13 | x | i | 1
CCN(C(=O)COC(=O)/C=C/c1c(C)nn(Cc2ccc(C)cc2)c1C)C1CCS(=O)(=O)C1 (stereo unspecified) | -6 | 4 | 3 | u | x | 14 | i | -3
COc1cccc(-c2nc(NCC3CCCO3)c3ccccc3n2)c1O (stereo unspecified) | 0 | 8 | -7 | -9 | -11 | -12 | i | 0
Cc1ccc(NC(=O)C(C)NS(=O)(=O)c2ccc(F)cc2)cc1C (stereo unspecified) | -6 | 0 | 1 | 5 | x | 1 | i | -7
COc1cccc(C2=NNC(=NCc3ccccc3)SC2)c1 | 34 | 2 | 4 | 5 | x | -3 | i | -4
COCCCNC(=O)/C=C1\Sc2ccccc2N(Cc2ccccc2F)C1=O | 25 | 1 | -3 | 5 | 1 | -29 | i | 4
CN(C)c1nc(N(C)C)n(C(=O)c2cccs2)n1 | -2 | 0 | 1 | 0 | x | 16 | i | -6
CCN(c1ccccc1)S(=O)(=O)c1ccc(F)c(C(=O)O)c1 | -12 | 3 | 5 | 1 | -16 | -6 | i | 8
O=C(COC(=O)C1CCC1)Nc1ccc(OC(F)F)cc1 | 30 | 4 | 2 | -2 | -11 | x | x | -7

Quoted at random: three records from the list, in no set order.
SMILES | CSC inhib | MT1-MMP act inh | MT1-MMP act inh RFP | PABP polyA inh | Yeast UUG start | Env fusion inh | Rce1 inhib | eIF4H FP inh | others
NC(=O)C1CCN(C(=O)c2cccc(S(=O)(=O)N3CCCC3)c2)CC1 | x | 1 | 2 | x | -5 | 4 | x | x
COCCCNC(=O)/C=C1\Sc2ccccc2N(Cc2ccccc2F)C1=O | 25 | 1 | -3 | 5 | 1 | -29 | i | 4
O=C1c2ccccc2C(=O)c2c1ccc1c(=O)n(-c3ccccc3)[nH]c21 | 34 | 19 | -2 | 42 | -13 | x | i | 1

The listing continues.
SMILES | CSC inhib | MT1-MMP act inh | MT1-MMP act inh RFP | PABP polyA inh | Yeast UUG start | Env fusion inh | Rce1 inhib | eIF4H FP inh | others
CCOC(=O)C1=CCN(S(=O)(=O)c2cccc(Cl)c2)C1c1ccccc1 (stereo unspecified) | x | -1 | -4 | x | 2 | 28 | x | x
O=C(N/N=C/C(Br)=C/c1ccccc1)c1ccc([N+](=O)[O-])cc1 | 20 | 2 | -2 | -5 | -17 | -42 | i | 10
C=CCCCCCCCCC(=O)N1CCN(c2cc3c(cc2F)c(=O)c(C(=O)O)cn3CC)CC1 | 4 | -1 | -27 | 2 | 5 | -23 | i | 10
COc1ccc(NC(=O)Nc2cccc3c2O[C@H](CN(C)C(=O)Nc2ccc(C(F)(F)F)cc2)[C@@H](C)CN([C@H](C)CO)C3=O)cc1 | 9 | 3 | 0 | x | -16 | -4[16.7 µM] | x | x
C[C@@H]1CC=C[C@H]2[C@H]1C(=O)N(Cc1ccccc1)[C@H]2c1ccc(-c2ccoc2)cc1F | 70 | -6 | -10 | 2 | -2 | -8 | i | -1
COc1cccc(C(C2C(=O)CC(C)(C)CC2=O)C2C(=O)CC(C)(C)CC2=O)c1 | -3 | 2 | 5 | -7 | -7 | 23 | i | -2
CCOC(=O)c1c(NC(=O)c2ccn(CC)n2)sc2c1CCC2 | 32 | -1 | -1 | 11 | -10 | -1 | i | -9
Nc1ccc(-n2nc3ccccc3n2)cc1 | 16 | 6 | -3 | x | -25 | -22 | i | x
CCOc1ccc2nc(NC3=NC(C)(C)C=C(C)N3)nc(C)c2c1 | 1 | -9 | -7 | -4 | -14 | -17 | x | -6
Cc1nc(NS(=O)(=O)c2ccc(Br)cc2)c2c3c(sc2n1)CCC3 | -5 | 7 | -7 | 4 | -28 | x | i | 13
COc1ccc(NC(=O)CN(C)C(=O)/C=C/c2cn(-c3ccccc3)nc2-c2cccs2)cc1 | 2 | -3 | -4 | x | x | -37 | i | x
Cc1cc(NC(=O)c2ccc3c(c2)C(=O)N(Cc2ccccc2)C3=O)no1 | -10 | 6 | 0 | -10 | x | 3 | i | 6
C[C@@H]1CCCCO[C@@H](CN(C)C(=O)Nc2ccccc2)[C@@H](C)CN([C@H](C)CO)C(=O)c2cc(N(C)C)ccc2O1 | x | 1 | 3 | x | 27&4 | 0 | x | x
O=C(CSc1nc(=O)n(CCCN2CCOCC2)c2c1CCC2)Nc1ccc(F)cc1 | -3 | 5 | 1 | x | 0 | -14 | i | x
O=C1CCCN1c1ccc(S(=O)(=O)N2CCCCC2)cc1[N+](=O)[O-] | x | -4 | 5 | 3 | x | 18 | i | -4
COc1ccc(S(=O)(=O)NCCSc2ccc(C)cc2)cc1OC | 6 | -1 | -1 | -10 | -1 | x | i | -2
COc1ccc(CN(C)C(=O)C23CC4CC(CC(Cl)(C4)C2)C3)c(OC)c1OC | 42 | -1 | -5 | 14 | 2 | 0 | i | 11
CN(Cc1ccccc1)C(=O)c1ccc(Cl)c([N+](=O)[O-])c1 | 20 | 1 | 6 | -4 | x | x | i | -9
NC(=O)C1CCN(CC(=O)NCc2ccccc2)CC1 | x | 1 | 3 | 1 | -6 | -37 | i | 4
CC12CN3CC(C)(CN(C1)C3c1ccc([N+](=O)[O-])o1)C2 (stereo unspecified) | -6 | -2 | 1 | -1 | -2 | 6 | i | 0
Cc1cc(NC(=O)C2CC(=O)N(c3ccccc3C)C2)no1 (stereo unspecified) | -9 | -1 | 1 | 4 | -9 | 5 | x | 104 | eIF4H FP inh retest=0;PABP polyA inh retest=5
O=C(NC1CCCCCC1)c1cccnc1Sc1ccccc1 | -6 | 2 | 4 | 7 | x | -1 | i | 2
COc1ccc(CNC(=O)c2cc(C3CC3)nc3c2cnn3C(C)C)cc1OC | -16 | 11 | -2 | x | 6 | 14 | x | x
COc1ccc(N/C=C(\C#N)c2nc3ccccc3n2C)c(OC)c1 | 48 | 3 | -4 | 18 | -14 | -162 | i | 5
O=C1Nc2cc3c(cc2C1=O)sc1ccccc13 | -1 | -2 | 6 | u | 1 | 52 | i | u
COCCCNCCCOc1ccc(C)cc1Br | 32 | -3 | 3 | 5 | 8 | 5 | i | 0
COc1cccc(NC(=O)CN(C)C(=O)CCc2nc3sc4c(c3c(=O)[nH]2)CCCC4)c1 | x | 0 | -1 | 22 | -19 | 7 | i | 28
COc1ccc(C2CC(=O)c3c(C)nc(N4CCN(Cc5ccccc5)CC4)nc3C2)cc1OC (stereo unspecified) | 28 | 2 | -19 | -9 | 1 | u | i | -4
O=[N+]([O-])c1cccc(-c2nc(-c3ccccc3)no2)c1 | -11 | -2 | 1 | 8 | 5 | -80 | i | 0
COc1ccc(C(=O)N(Cc2ccccc2)c2cccc(C)c2)cc1S(=O)(=O)N1CCOCC1 | -4 | 3 | 2 | x | 3 | 10 | i | x
CCCCCn1c(=O)[nH]c2cc(C(=O)N3CCN(c4ccc(F)cc4)CC3)ccc2c1=O | x | -3 | -21 | x | -4 | 3 | x | x
CCC(C)C(NC(=O)c1ccccc1NC(=O)c1ccc(OC)cc1)C(=O)NCc1ccco1 (stereo unspecified) | -5 | -1 | -1 | 7 | -16 | x | i | 4
CCCOC1CCCN(C(=O)CCc2nnc(Cc3cccc(C)c3)o2)C1 (stereo unspecified) | -6 | 1 | 1 | -1 | x | -32 | i | 2
C/C(=N\NC(=O)CSCc1ccccc1Cl)c1cccc(NC(=O)c2ccccc2)c1 | -4 | -1 | -6 | 10 | x | -33 | i | -2
Cc1cccc(N/C(N)=N/c2nc(C(F)(F)F)cc(C(F)(F)F)n2)c1 | -9 | 4 | -1 | -1 | 3 | 6 | i | -14
Cc1cc(C)n2nc(SCC(=O)N/N=C/c3ccc(F)cc3)nc2n1 | 8 | 4 | 3 | 3 | -4 | x | i | 1
Cc1cccc(-[n+]2c(C)cc(C)c3c(=O)[nH]c(=O)[nH]c32)c1 | 8 | -3 | 5 | -8 | 1 | x | u | 14
CCc1ccc(CNC(=O)C2CCN(S(=O)(=O)N3CCC(C)CC3)CC2)cc1 | 10 | 0 | -11 | -1 | -2 | -3 | i | -8
O=C1CN(C(=O)CNCc2ccccc2Cl)c2ccccc2N1 | -3 | 2 | 4 | -5 | -18 | -9 | i | 1
NC(=O)c1nsc(C(=O)N(CC(=O)NC2CCCCC2)c2ccc(Cl)cc2)c1N | -6 | 1 | -6 | 1 | 15 | -1 | i | 6
CCn1nc(C)c(/C=C2\CCCC3=C2OC(N)=C(C#N)C3c2c(C)nn(CC)c2C)c1C (stereo unspecified) | -4 | x | x | u | x | x | i | u
CCn1c(CCNC(=O)c2ccc(OC)cc2)nnc1SCc1ccc(Cl)c(Cl)c1 | 0 | -5 | -21 | 14 | -12 | 13 | i | 7
Cc1sc2nc(SCC(=O)N3CCOCC3)[nH]c(=O)c2c1-c1ccccc1 | -13 | 0 | 3 | -1 | 3 | -8 | i | -3
COC(=O)c1ccc(NC(=O)COC(=O)COc2cccc3c2OC(C)(C)C3)cc1 | -7 | -1 | 2 | x | -9 | x | x | x
COc1ccc(CCNC(=O)CCCc2ccccc2)cc1 | 0 | -3 | 4 | 3 | -19 | 1 | i | -6

This is a subset; the hit share may differ from the screen's.
